# From PubChem
# VACV Venus inh: qHTS for Stage-Specific Inhibitors of Vaccinia Orthopoxvirus: Venus Reporter Primary qHTS | Vaccinia virus Venus reporter expression, fluorescence | Potency, µM (doses to about 36.5 µM), for inactives: top-dose activity change, negative = inhibition, actives largely listed as inhibitors | actives 0.46% (n = 330,000) | AID 720580, 2013; active means well fitted inhibition curve with a large enough effect; inconclusive means small, poorly fitted or top-dose-only effect; inactive means no such curve, though single readings can be large or run the other way; tested in A549 cells; note: nearly all actives have a fitted effect of over 30% in size; inactives centre near -10
# VACV mCherry inh: qHTS for Stage-Specific Inhibitors of Vaccinia Orthopoxvirus: mCherry Reporter Primary qHTS. Vaccinia virus mCherry reporter infection, fluorescence; about a quarter of the inactives have no number. Potency, µM (top dose mostly 36.5 µM), for inactives: at the top dose activity change, negative = inhibition, most hits filed as inhibitors. actives 0.63% (n = 310,000); active = well fitted inhibition curve with a large enough effect; inconclusive = small, poorly fitted or top-dose-only effect; inactive = no such curve, though single readings can be large or run the other way; tested in A549 cells; note: nearly all actives have a fitted effect of over 35% in size; inactives centre near -10
# Numbers without * were called inactive; i = inactive; u = inconclusive; x = not tested or not shown; & = joins results of further samples; [ ] = remark or other dose. % is set by controls: 0 for no effect and ±100 for the full control effect; potency is the fitted concentration of half-maximal effect.
SMILES,VACV Venus inh,VACV mCherry inh
Cc1cnc(CN2CCc3c([nH]c4ccccc34)C2CC(C)C)[nH]1 (stereo not given),-5%,u
CC(NC(=O)Cc1ccsc1)c1ccc(F)cc1 (stereo not given),-10%,-24%
CCNC(=O)C1(C)CCCN(Cc2cccc(Oc3ccccc3)c2)C1 (stereo not given),0%,2%
COc1ccc(C2C3C(=O)N(Cc4ccccc4)C(=O)C3ON2c2ccccc2)c(OC)c1OC (stereo not given),-28%,x
CC1CNC(=S)N(c2ccccc2)C1=O (stereo not given),4%,-9%
CCc1ccc(Nc2cc(C)nc3ncnn23)cc1,-26%,-4%
Cc1cccc(-n2c(=O)c3c4c(sc3n3c(C)nnc23)CCCC4)c1,-5%,-5%
N[C@@]1(C(=O)O)CC[C@@H](C(=O)O)C1,-8%,i
Cc1ccc2oc(C(=O)N3CCN(CCO)CC3)c(C)c2c1,-7%,-20%
COc1ccc(CNC(=O)CCC(=O)N2CC3CCCN3c3ccccc32)c(OC)c1 (stereo not given),-1%,-15%
O=S1(=O)[C@H]2C[C@@H]3C=C[C@@]2(CN1Cc1ccc(F)cc1)O3,u,u
Cc1ccc(/C(N)=N/OC(=O)COc2ccc(Cl)c(C)c2)cc1,3%,-5%
CN(C)CCCN(C(=O)CCc1ccccc1)c1nc2c(F)cccc2s1,u,u
O=C(O)COc1ccccc1/C=N/NC(=O)C(O)c1ccccc1 (stereo not given),-15%,i
CCC(NC(=O)Nc1cc(Cl)ccc1OC)c1c(-n2cccc2)sc2c1CCN(C)C2 (stereo not given),-12%,-17%
C=CCc1cccc2cc(C(=O)NCCOC)c(=O)oc12,2%,-28%
Brc1ccc(CN2CCc3nc(N4CCN(c5ncccn5)CC4)ncc3C2)cc1,-25%,-14%
Cc1ccc2[nH]cc(S(=O)(=O)c3ccc(C)c(C)c3)c(=O)c2c1,-14%&-7%,-5%&-4%
CC1(c2nnc(Cc3ccccc3)o2)CC(c2ccccc2[N+](=O)[O-])=NO1 (stereo not given),-7%,-15%
Cc1ccc(-c2noc(CCC(=O)NCCN3CCc4ccccc4C3)n2)cc1,-14%,-14%
COc1cccc(CNC(=O)COC(=O)CCCNC(=O)c2ccc(Cl)cc2)c1,-7%,-11%
Cc1cnc(CN(C)C(=O)CC2C(=O)NCCN2Cc2cccc(F)c2F)[nH]1 (stereo not given),-7%,-8%
Cc1cccc(NC(=O)c2cc(S(=O)(=O)N(C)c3ccc(F)cc3)ccc2Cl)n1,-17%,-2%
Cc1ccc(C2Nc3ccccc3-n3c(-c4ccccc4)c4c(=O)n(C)c(=O)n(C)c4c32)cc1 (stereo not given),-4%,-11%
CCN1C(=O)C(CC(=O)Nc2ccc(F)cc2)N(Cc2cccs2)C1=S (stereo not given),-6%,-10%
Cc1ccc(S(=O)(=O)CC(=O)NCc2ccc(Cl)cc2)cc1,-11%,-20%
Cc1ccc(-c2nnc(NC3CCCC3)s2)cc1,-26%,-25%
O=[N+]([O-])c1cc(C(F)(F)F)ccc1NCCOc1ccccc1,-10%,-16%
O=C(O)c1cc(-c2ccc3c(c2)OCCO3)n[nH]1,3%,0%
CC(C)(C)c1ccc(S(=O)(=O)NC(=O)C2(C)CCN2C(=O)Cc2cccc3ccccc23)cc1 (stereo not given),15%,i
COc1ccc(Cc2nc3ccc(C(=O)N4CCN(C)C(C)C4)cc3o2)cc1OC (stereo not given),-19%,u
COc1ccc(Br)cc1C(=O)Nc1ccc(-c2nc3ncccc3o2)cc1C,-2%,0%
Cc1cc(C)n2nc3nc(N4CCCCC4)nc(-c4ccco4)c3c2n1,5%,x
Cc1ccc(NC(=S)N2CCC(NC(=O)C3CCCCC3)CC2)cc1C,-18%,u
CN(Cc1nc(-c2ccc(Cl)cc2)no1)C(=O)c1ccco1,-8%,-18%
NS(=O)(=O)c1ccc(NC(=O)COC(=O)CSc2n[nH]c(-c3ccccc3)n2)cc1,-10%,i
O=C(Nc1nccs1)c1cc(Cl)ccc1[N+](=O)[O-],-19%,-8%
COC(=O)C1=C(c2c(C)noc2C)C[C@@H]2CC[C@H]1N2C(=O)NC(C)C,-1%,i
COCCn1c(SCc2ccc(C(=O)OC)o2)nnc1-c1c[nH]c2ccccc12,-1%,i
O=C(C1CCCN1S(=O)(=O)c1ccc(Cl)c(Cl)c1)N1CCOCC1 (stereo not given),-11%,i
COc1ccccc1CNC(=O)CC1Sc2ccccc2NC1=O (stereo not given),-4%,-20%
CCN(CC)C(=S)SSC(=S)N(CC)CC,-6%&-12%&-6%,-7%&-19%&-13%
Cc1ccc(/C=N/NC(=O)NN(C)c2ncc(C(F)(F)F)cc2Cl)cc1,-18%,-7%
O=C1c2oc3ccc(Cl)cc3c(=O)c2C(c2cccc(Br)c2)N1CCO (stereo not given),-26%,x
CCOC(=O)C1=C(C)N(C)C(=S)N(C)C1c1ccc(OC)cc1 (stereo not given),-3%,i

# Given with two lines to a compound: 15 of the compounds above.
# Results follow in this order: VACV Venus inh, VACV mCherry inh
> O=[N+]([O-])c1cc(C(F)(F)F)ccc1NCCOc1ccccc1
→ -10%, -16%
> O=C(O)c1cc(-c2ccc3c(c2)OCCO3)n[nH]1
→ 3%, 0%
> CC(C)(C)c1ccc(S(=O)(=O)NC(=O)C2(C)CCN2C(=O)Cc2cccc3ccccc23)cc1 (stereo not given)
→ 15%, i
> COc1ccc(Cc2nc3ccc(C(=O)N4CCN(C)C(C)C4)cc3o2)cc1OC (stereo not given)
→ -19%, u
> COc1ccc(Br)cc1C(=O)Nc1ccc(-c2nc3ncccc3o2)cc1C
→ -2%, 0%
> Cc1cc(C)n2nc3nc(N4CCCCC4)nc(-c4ccco4)c3c2n1
→ 5%, x
> Cc1ccc(NC(=S)N2CCC(NC(=O)C3CCCCC3)CC2)cc1C
→ -18%, u
> CN(Cc1nc(-c2ccc(Cl)cc2)no1)C(=O)c1ccco1
→ -8%, -18%
> NS(=O)(=O)c1ccc(NC(=O)COC(=O)CSc2n[nH]c(-c3ccccc3)n2)cc1
→ -10%, i
> O=C(Nc1nccs1)c1cc(Cl)ccc1[N+](=O)[O-]
→ -19%, -8%
> COC(=O)C1=C(c2c(C)noc2C)C[C@@H]2CC[C@H]1N2C(=O)NC(C)C
→ -1%, i
> COCCn1c(SCc2ccc(C(=O)OC)o2)nnc1-c1c[nH]c2ccccc12
→ -1%, i
> O=C(C1CCCN1S(=O)(=O)c1ccc(Cl)c(Cl)c1)N1CCOCC1 (stereo not given)
→ -11%, i
> COc1ccccc1CNC(=O)CC1Sc2ccccc2NC1=O (stereo not given)
→ -4%, -20%
> CCN(CC)C(=S)SSC(=S)N(CC)CC
→ -6%&-12%&-6%, -7%&-19%&-13%

# (next part)
SMILES,VACV Venus inh,VACV mCherry inh
CC(=O)Nc1ccc(Nc2ncnc3c2c(-c2ccccc2)cn3-c2ccc(C)c(Cl)c2)cc1,-19%,-28%
O=C(Nc1ncc2c(n1)-c1ccccc1OC2)c1cccc([N+](=O)[O-])c1,u,-18%
CCNC(=O)C1(C)CCCN1C(=O)c1c(F)cccc1F (stereo not given),2%,19%
Cc1c(C(=O)Nc2ccccc2)csc1-c1ccccc1,-7%,-12%
CC(C)(C)OC(=O)N1CCC(NC(=O)c2nc[nH]c2C(=O)N2CCN(C(=O)OC(C)(C)C)CC2)CC1,-10%,i
CCN(CC)C(=O)c1ccc2nc3ccccc3nc2c1,u,2.2µM*
Cc1cccc(N(Cc2ccccc2)C(=O)c2cc(S(=O)(=O)N3CCOCC3)ccc2Cl)c1,-17%,-6%
CCOC(=O)CC(c1ccc(N)cc1)n1c(C)ccc1C (stereo not given),-8%,i
Cc1occc1-c1nnc(SCC(=O)Nc2ccccc2-c2ccccc2)n1C,-6%,-22%
CN(C)c1ccc(-c2ccc3c(=O)c4ccccc4n(C)c3c2)cn1,u,u
COc1cc(OC)cc(C(=O)N[C@H](C(=O)OCC(=O)Nc2cccc(F)c2)C(C)C)c1,-13%,i
Cc1ccc(C)c(S(=O)(=O)N2CCN(C(=O)c3ccc(N4CCCC4)c([N+](=O)[O-])c3)CC2)c1,-14%,-4%
OC1(c2ccccc2)CCN(Cc2ccccc2)C2CCCCC21 (stereo not given),u,-9%
CC1(C)C(=O)N(CC(=O)Nc2cccc(F)c2)c2ccc(S(=O)(=O)N3CCCCC3)cc21,-5%,-10%
Cc1nc(NC(=O)CSc2nnc(C3CC3)n2C)sc1C,-4%,7%
COc1ccc(-n2c(=O)c3c(C)c(C)sc3n(Cc3ccc(F)cc3)c2=O)c(OC)c1,-17%&-12%,-6%
CCC1CN(C(=O)N2CCC(C(=O)NCc3cccc(F)c3)CC2)c2cc(C)ccc2O1 (stereo not given),-12%,0%
COC(=O)CON1C(=O)c2ccccc2C1=O,-7%,-12%
Cn1nnnc1SCC(=O)Nc1nc2c(F)c(F)c(F)cc2s1,0%,i
CN1C(=O)CSC1=Nc1ccc(F)cc1,-13%,i
Cc1ccc(NC(=O)CCN2C(=O)C3C4CCC(C4)C3C2=O)cc1[N+](=O)[O-] (stereo not given),-12%,i
COc1ccc2[nH]c3c(c2c1)CCN1C(=O)N([C@@H](C)C(=O)NCc2ccc(F)cc2)C(=O)[C@]31C,0%,-9%
CCCCn1c(=O)c(C(=O)NCc2ccc(Cl)cc2)c(O)c2ccccc21,-2%,u
CCOC(=O)CNC(=O)N(C)[C@H]1C[C@H]2c3[nH]c4ccccc4c3CCN2C[C@H]1[C@H](C)O,4%,12%
Cc1ccc(Nc2c3c(nc4nncn24)CCC3)cc1C,-13%,-31%
Cc1ccc(NC(=O)C2SC(=Nc3ccccc3)C(C(=O)Nc3ccc(Cl)cc3)=C2N)cc1 (stereo not given),-16%,-11%
O=C(Cn1ncc2c([nH]c3ccccc32)c1=O)Nc1ccc(F)cc1F,-11%,-9%
O=S(=O)(O)c1cc(N=C=S)ccc1/C=C/c1ccc(N=C=S)cc1S(=O)(=O)O,-12%,-19%
O=C(CSc1nc2c([nH]c3ccccc32)c(=O)n1-c1ccc(Cl)cc1)c1ccccc1,-2%,3%
Cc1ccc(CNC(=O)COC(=O)CSc2ccc(Br)cc2C)cc1,-9%,-8%
O=C(O)c1cn(-c2ccc(N3CCCC3)c(F)c2)c2c(F)c(F)c(F)cc2c1=O,-1%,i
Cc1cc(C(=O)Nn2c(C)nc3ccccc3c2=O)ccc1[N+](=O)[O-],-6%,-14%
COc1ccc(NC(=O)CN2CCCN(Cc3ccc(Cl)cc3)S2(=O)=O)cc1Cl,-9%,-12%
N#Cc1nc(-c2ccco2)oc1NCc1cccnc1,-2%,-12%
CC1CCc2c(sc(NC(=O)Cc3ccccc3)c2C(=O)Nc2ccc(Cl)cc2)C1 (stereo not given),-8%,-3%
Cc1nc(S(=O)(=O)NC2CCCCC2)c(C#N)c(C)c1Cl,-29%,i
O=C(NCCc1ccc(Cl)cc1)c1cc(-c2ccncc2)nc2ccccc12,-3%,-23%
CC(C)(C)c1nn2cnnc2n(/N=C/c2ccccc2)c1=O,-3%,-14%
CCOC(=O)COc1ccccc1/C=N/O,-3%,-14%
Cc1cc(C)n(-c2ccc(C(=O)OCC(=O)Nc3ccc(S(=O)(=O)N4CCCCC4)cc3)cc2)n1,-13%,x
O=[N+]([O-])c1ccc(Cl)cc1Sc1nc2ccccc2o1,-12%,-27%
CC(C)CNC(=O)C1(C)CCCCCN1C(=O)c1cc2ccccc2s1 (stereo not given),-19%,-12%
CC(C)(C)c1c(Cl)c(O)c(-c2ccccc2)c(=O)n1-c1ccccc1,-12%,-13%
O=C(COc1ccc(-c2nnco2)cc1)NCc1ccccc1Cl,-11%,-12%
Cc1ccc(CNC(=O)CN2C(=O)CSc3ccc(S(=O)(=O)N4CCC(C)CC4)cc32)cc1,-17%,-22%

# Full records from above. Order of values: VACV Venus inh, VACV mCherry inh
# CN(C)CCCN(C(=O)CCc1ccccc1)c1nc2c(F)cccc2s1 across the screens: u, u
# CC(C)(C)OC(=O)N1CCC(NC(=O)c2nc[nH]c2C(=O)N2CCN(C(=O)OC(C)(C)C)CC2)CC1 across the screens: -10%, i

# The list continues.
SMILES,VACV Venus inh,VACV mCherry inh
Cn1ccnc1SCC(=O)NC12CC3CC(CC(C3)C1)C2,-18%,-14%
Cc1ccc2c(c1)c1c(c(=O)n(Cc3ccccc3)c(=O)n1Cc1cccc(F)c1)n2C,3%,2%
Cc1cc(C)c2cc(C#N)c(N3CCCN(S(=O)(=O)c4ccccc4)CC3)nc2c1,-9%,i
COc1ccc(-c2coc3cc(O)ccc3c2=O)cc1O,-3%,8%
CC(C)C(=O)N1CCCC1(C)C(=O)Nc1ccc(-n2cncn2)cc1 (stereo not given),1%,16%
Cc1cc(C(=O)COC(=O)c2ccc(O)cc2)c(C)n1-c1ccccc1F,-8%,-10%
CC(=O)c1ccc(NC(=O)C(C)n2nc(-c3ccccc3)ccc2=O)cc1 (stereo not given),-15%,-11%
CCCCn1c(=N)c(S(=O)(=O)c2ccc(Br)cc2)cc2c(=O)n3cccc(C)c3nc21,-12%,i
Cc1cc(C)c(/C=C/c2onc(C)c2S(=O)(=O)N2CCC(C(=O)NCc3ccco3)CC2)c(C)c1,-9%[7.34 µM],-12%[7.34 µM]
CN(C(=O)Cc1csc(-c2ccccc2)n1)c1c(N)n(Cc2ccccc2)c(=O)[nH]c1=O,-13%,i
COc1ccc(Cl)cc1C(=O)Nc1cc(=O)n(C)c(=O)n1C,-13%,-26%
COc1ccc(N2CCN(C(=O)Cn3cnc4sc(C)c(S(=O)(=O)N5CCC(C)CC5)c4c3=O)CC2)cc1,0%,-9%
O=C(c1ccccc1)N1CCC(O)(c2cccnc2)CC1,-10%,-15%
